# Assay outcomes as filed in PubChem BioAssay.
# Autofluor counter – counter-screen for toxin protease inhibitors: compound fluorescence. AID 624483. fluorescence intensity (no concentration beside the values). compound autofluorescence counterscreen, microsphere flow cytometry; hits give high values. hit rate 3.1% among 360,000;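 active = at least 3 SD above the mean of all compounds, about 16000 in these data; inconclusive = too few beads counted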;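 also: 100 nL of 1 mM stock went into each well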
# Sa RN4220 lethal – S. aureus RN4220 growth inhibition; inhibition, % (no concentration beside the values); OD600, 16 h; hit rate 0.33% among 330,000;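 active = z-score of -3 or lower and OD600 up to 0.18 on both plates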;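 also: plate controls were untreated cells for no effect and reference antibiotic for full effect; stock transfer was 100 nL into about 80 µL; one replicate is shown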
# Mtb hypoxia inh – Mtb hypoxia fluorescent reporter inhibition; hit rate 0.1% among 300,000; fluorescence inhibition, % (concentration not given with the values); M. tuberculosis hypoxia-regulated fluorescent reporter, fluorescence; AID 1159583;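 active = 35 to 45% if threefold the growth effect, above 45% if 1.5-fold the growth effect; inactive = the rest, general growth blockers included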;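 also: wells of about 50 µL received 100 nL stock; 0% = vehicle wells and 100% = reference inhibitor wells; whole bacteria with a GFP reporter of the hypoxia response; strong numbers were not always called active; many hits fall short of the cut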
# PrP UTR inh – inhibition of PrP 5' UTR reporter expression; cell-based PrP 5' UTR mRNA reporter, plate reader; inhibition, % (no concentration beside the values); hit rate 0.35% among 340,000; AID 488862;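 active = every replicate at 50% or more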;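 also: 0 = median of the neutral control wells; tested in H4 reporter cells; numbers are from one replicate; inactives centre near -14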
# Sa ugtP lethal – growth inhibition of S. aureus ugtP deletion strain. growth inhibition, % (concentration not given with the values). S. aureus RN4220 ugtP deletion, OD600 growth, 16 h; some inactives read as strong as hits. hit rate 0.54% among 330,000;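 active = z-score under -3 and OD600 up to 0.15 on both plates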;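 also: plate controls were untreated wells for no effect and antibiotic for full effect; wells of about 80 µL received 100 nL stock; the first replicate is given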
# BJeLR viability – BJeLR cell viability loss. BJeLR (HRASV12) viability, CellTiter-Glo ATP luminescence, 48 h; reference of the scale not given here. inhibition, % (test concentration not listed). hit rate 0.17% among 300,000;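 active = replicate mean above 50%; inconclusive = above 50% but judged a plate artefact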;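 also: 50 nL library stock added to about 25 µL; numbers are from one replicate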
# Mtb hypoxia inh growth – also measured in Mtb hypoxia inh; calls as there; growth inhibition, %; measured here: M. tuberculosis growth (absorbance);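 0% = vehicle and 100% = reference antibiotic; read after six days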
# * marks the source's active call; other numbers are inactive results; ? = inconclusive; . = no result given.
SMILES,Autofluor counter,Sa RN4220 lethal,Mtb hypoxia inh,Mtb hypoxia inh growth,PrP UTR inh,Sa ugtP lethal,BJeLR viability
COc1ccccc1/C=C/C1=NC(=C\N(C)C)/C(=O)O1,4608,-2.7,.,.,-39,1,-1
CCCS(=O)(=O)N1CCN=C1SCc1cccc2ccccc12,2301,4.5,15,9,-18,2,3
Cc1nnc2ccc(-c3ccc(NC(=O)c4ccco4)cc3)nn12,5392,3.6,3,-8,-21,5,5
CC(C)c1csc(CN2CCC(CO)(Cc3ccccc3)CC2)n1,4132,4.6,11,2,-14,7,16
Cc1ccccc1C(=O)Nc1ccc2c(c1)nc(CCNC(=O)c1ccco1)n2C,5148,-1.0,9,7,-33,7,9
Cc1ccc(Cn2cc(C(=O)NN)c(=O)c3ccc(F)cc32)cc1,3516,3.2,2,3,-7,0,-4
C#CCOc1ccc(C2C(C#N)=C(N)Oc3cc(O)ccc32)cc1 (configuration not stated),4094,7.3,3,14,-3,15,-3
COC(=O)Cc1ccc(NC(=S)N2CCN(c3cc(Cl)ccc3C)CC2)cc1,4686,1.2,6,6,-32,0,5
COc1cccc(NS(=O)(=O)c2c(C(=O)N3CCCCCC3)c(C)n(C)c2C)c1,5340,2.5,4,5,-14,3,-3
COc1ccc(CNc2ncnc3ccccc23)cc1,6277,-1.6,-2,-3,-1,-6,1
COc1ccc(CNC(=O)c2ccc(Cn3nc(C)c([N+](=O)[O-])c3C)o2)cc1,3204,2.1,12,5,-22,6,6
CC(C)(C)NC(=O)COC(=O)CCC(=O)c1ccc(F)cc1,4092,2.6,-1,7,-15,4,25
COc1cccc(OCC(O)CN(CCO)Cc2ccccc2)c1 (configuration not stated),2717,-3.0,.,.,-8,10,11
COc1ccc(OC)c(C(=O)COC(=O)c2c(OC)cccc2OC)c1,3562,0.3,12,1,-5,6,2
O=C(Cn1nnc2ccccc2c1=O)N1CCCc2ccccc21,12025,2.4,12,6,.,2,-8

# Look-ups from the results shown:
# Cc1nnc2ccc(-c3ccc(NC(=O)c4ccco4)cc3)nn12 – BJeLR viability = 5
# CC(C)(C)NC(=O)COC(=O)CCC(=O)c1ccc(F)cc1 – Autofluor counter = 4092
# COc1cccc(NS(=O)(=O)c2c(C(=O)N3CCCCCC3)c(C)n(C)c2C)c1 – Sa RN4220 lethal = 2.5
# Cc1ccccc1C(=O)Nc1ccc2c(c1)nc(CCNC(=O)c1ccco1)n2C – PrP UTR inh = -33
# COc1cccc(OCC(O)CN(CCO)Cc2ccccc2)c1 (configuration not stated) – Sa ugtP lethal = 10
# COc1ccccc1/C=C/C1=NC(=C\N(C)C)/C(=O)O1 – PrP UTR inh = -39
# COc1ccc(OC)c(C(=O)COC(=O)c2c(OC)cccc2OC)c1 – BJeLR viability = 2

# Further results follow.
SMILES,Autofluor counter,Sa RN4220 lethal,Mtb hypoxia inh,Mtb hypoxia inh growth,PrP UTR inh,Sa ugtP lethal,BJeLR viability
CC(=O)Nc1ccc(Nc2ncnc3c2cnn3-c2cccc(C)c2)cc1,19017*,1.0,4,11,-22,3,-5
CCOc1ccc(C(CC)=NNC(=O)C2(C)CC2(Br)Br)cc1 (configuration not stated),.,2.8,15,8,.,-7,.
COc1ccccc1N(CC(=O)Nc1ccc(S(=O)(=O)N2CCOCC2)cc1)S(C)(=O)=O,2975,2.7,6,-1,-10,4,0
COc1cc(CNCCc2ccc3c(c2)OCO3)ccc1O,3336,1.2,5,3,-2,5,13
CSc1nc(NC(C)C)nc(N2CCOCC2)n1,3485,2.9,.,.,-4,3,5
CCN(C(=O)CSc1nnc(-c2ccco2)n1CC)c1c(N)n(Cc2ccccc2)c(=O)[nH]c1=O,2930,4.7,5,-13,-8,9,.
COc1cc(C(=O)Nc2nc3ccccc3[nH]2)cc(OC)c1OC,9839,0.6,-3,-4,-30,-3,-4
CC1=C(C(=O)Nc2ccc(C(=O)NC(C)c3ccccc3)cc2)SCCO1 (configuration not stated),5844,-1.3,5,-1,6,9,-2
COc1ccc(CNC(=O)C(C)N2CCN(c3ccc(C(C)=O)cc3)CC2)cc1 (configuration not stated),4022,2.1,-1,5,-2,4,4
O=C(OCCOCCN=C1NS(=O)(=O)c2ccccc21)c1ccccc1Br,4541,3.5,8,4,1,4,-3
Cc1c(C(=O)N2CCCCC2)c(S(=O)(=O)N(C)Cc2ccccc2)c(C)n1C,5403,0.6,6,-2,-22,9,2
O=C(C1CCN(S(=O)(=O)c2cccs2)CC1)N1CCc2ccccc2C1,9958,6.7,4,6,-28,0,9
Nc1nc(NC(=O)/C=C/c2ccccc2)nn1-c1ccccc1,2044,4.9,9,-8,-14,-6,-1
COC(=O)c1[nH]c2cccc(OC)c2c1NC(=O)CCN1CC(C)CC(C)C1 (configuration not stated),2924,7.5,7,11,-3,3,4
COc1ccccc1N1CCN(C(=O)c2cccc(N3C(=O)NC4CC3(C)Oc3ccccc34)c2)CC1 (configuration not stated),4220,-5.6,.,.,-3,-3,18
NS(=O)(=O)c1ccc(-n2nc(C(=O)O)cc2-c2ccc(Cl)cc2)cc1,3320,0.9,-6,-4,2,2,3
COc1cc(C(C)=O)ccc1O,5809,.,.,.,55,.,-5
CN1N=C2c3ccccc3CCC2C1c1ccc(Cl)cc1 (configuration not stated),3594,1.6,8,4,-40,6,1
O=S(=O)(Nc1nc2ccccc2nc1NCC1CCCO1)c1cccs1 (configuration not stated),4846,32,.,.,-14,-5,-5
CCN(CCn1cccn1)C(=O)CCc1nnc(CCCc2ccccc2)o1,2357,4.1,4,3,-72,11,-12
Nc1nc(N2CCN(c3cccc(Cl)c3)CC2)n[nH]1,3201,12,-1,8,-9,2,-6
CCC(C)(C)C1CCc2[nH]nc(C(=O)NC3CCCC3)c2C1 (configuration not stated),3832,-2.2,6,9,-1,0,.
Cc1cccc(C(=O)n2cnnc2N)c1,1979,1.0,3,-11,-12,1,-4
CC1CCCN(c2ccc3nncn3n2)C1 (configuration not stated),3417,2.7,-1,-3,-17,-5,2
COc1ccccc1C(=O)NCCC(=O)NC(C)CCc1ccccc1 (configuration not stated),?,2.8,-3,10,4,1,-16
Cc1ccc(S(=O)(=O)CCC(=O)OCC(=O)Nc2ccc(N3CCOCC3)cc2)cc1,5735,0.6,0,-3,-13,3,-9
COc1ccc(NS(=O)(=O)c2cccc(C(=O)N3CCC3)c2)cc1,5943,5.5,4,8,-72,6,-7
CN(C)C(=O)c1ccc2c(c1)n(C)c(=O)n2C,2966,4.4,2,-5,-5,-6,-4
COc1ccc(-c2cnnc(N/N=C/c3ccc(O)c(OC)c3)n2)cc1,1999,.,.,.,-47,.,30
CN(CC(=O)Nc1ccc(Cl)cc1)C1=NS(=O)(=O)c2ccccc21,4154,-0.4,14,34,-5,5,.

# Arranged by SMILES length (low to high): some entries from above
SMILES,Autofluor counter,Sa RN4220 lethal,Mtb hypoxia inh,Mtb hypoxia inh growth,PrP UTR inh,Sa ugtP lethal,BJeLR viability
CN(C)C(=O)c1ccc2c(c1)n(C)c(=O)n2C,2966,4.4,2,-5,-5,-6,-4
O=S(=O)(Nc1nc2ccccc2nc1NCC1CCCO1)c1cccs1 (configuration not stated),4846,32,.,.,-14,-5,-5
COc1ccc(-c2cnnc(N/N=C/c3ccc(O)c(OC)c3)n2)cc1,1999,.,.,.,-47,.,30
NS(=O)(=O)c1ccc(-n2nc(C(=O)O)cc2-c2ccc(Cl)cc2)cc1,3320,0.9,-6,-4,2,2,3

# Next section:
SMILES,Autofluor counter,Sa RN4220 lethal,Mtb hypoxia inh,Mtb hypoxia inh growth,PrP UTR inh,Sa ugtP lethal,BJeLR viability
CC(=O)c1ccc(-c2nnc(CCC(=O)N(C)Cc3cnc4ccccn34)o2)s1,4315,0.6,9,11,-19,7,1
O=C(CSc1nnc(-c2ccco2)o1)c1ccc(O)cc1O,3165,-9.8,7,3,-3,8,8
CC(=O)N/C(=C\c1ccccc1)C(=O)OCC(=O)NC1CCCC1,10048,2.5,10,4,-1,12,-6
CCc1c(C(=O)N2CCCN(C)CC2)csc1C,5145,4.9,12,12,-8,7,-2
COc1ccc(C(=O)NC(=S)N2CCOCC2)cc1Br,5482,2.3,3,1,-17,4,1
COc1ccc(COCC(O)CN(Cc2ccccc2)C(C)C)cc1OC (configuration not stated),4373,-1.5,-3,-1,-2,-4,-4
O=C(/C=C/c1ccccc1Cl)Nc1ccc(Cl)cn1,2721,5.3,5,0,-74,5,-8
O=S(=O)(NN=C1CCCCC1)c1ccccc1,4687,1.7,-2,-6,-9,4,7
CCCCCOc1ccc(Cl)cc1CN1CCOCC1,2575,7.9,.,.,-44,19,5
C=CCOc1ccccc1CN1CCCCCC1,3408,2.7,9,1,-14,2,0
Brc1ccc(-c2nc(-c3ccccc3)no2)o1,22544*,15,3,10,-87,28,-3
OCC[C@@H]1C[C@H](O)[C@@H](O)[C@]2(CCCc3ccccc3O2)O1,4069,.,.,.,-14,.,4
O=C(CSc1nnnn1-c1cccc(F)c1)NC1CCCCC1,3792,0.5,-4,11,-23,0,.
N#CC=C1NC(=O)c2ccccc2S1,.,7.5,1,5,.,-3,.
CC(=O)c1sc(NC(=O)C2CC(=O)N(Cc3ccco3)C2)nc1-c1ccccc1 (configuration not stated),.,8.2,-1,-2,-19,12,2
O=C(NCCc1ccccc1)c1n[nH]c(=O)c2ccccc12,4574,0.9,4,3,-22,0,-3
CCCCc1nnc(NC(=O)C23CC4CC(CC(NC(C)=O)(C4)C2)C3)s1,4725,0.2,4,-9,-6,1,7
O=C(NNC(=O)c1cc([N+](=O)[O-])ccc1Cl)c1cccs1,1895,17,3,10,-2,-3,1
Cc1cc(/C=C(\C#N)C(=O)NCc2ccco2)c(C)[nH]1,3146,-3.6,8,7,-9,-4,-7
Cc1c(-c2ccc(Br)cc2)nc2ccccn12,3035,4.5,9,7,-87,0,3
COc1cccc(/C=N/n2c(-c3cc(C)[nH]n3)n[nH]c2=S)c1,3743,.,.,.,-24,.,12
CCCCN1C(=O)C2Cc3c([nH]c4ccccc34)CN2C1=S (configuration not stated),4387,7.6,2,12,3,18,-8
Clc1ccc2nc(N3CCNCC3)nc(-c3ccccc3)c2c1,2954,-6.0,-43,38,-6,-30,-8
CC[C@H](C)C(=O)O[C@H]1CCC=C2C=C[C@H](C)[C@H](CC[C@@H]3C[C@@H](O)CC(=O)O3)[C@H]21,5537,.,.,.,-21,.,4
CSc1ccccc1C(=O)N1CCN(c2ccc(F)cc2)CC1,16104,3.4,6,0,-41,8,3
Cc1nc([N+](=O)[O-])cn1CC(O)c1ccc(Cl)cc1 (configuration not stated),.,3.3,0,0,-10,2,-3
Cc1cccc(-n2c(CNC(=O)c3ccc(S(=O)(=O)N(C)C)cc3)nnc2SCC(=O)Nc2ccc(F)cc2)c1,2177,7.4,-4,-1,-5,16,12
CC1(C)Cc2cccc(Oc3ccc(S(=O)(=O)N4CCCCC4)cn3)c2O1,4180,-0.9,12,2,-21,2,-9
CCC1=Nc2ccc(Br)cc2C(c2ccccc2)N1CC(=O)OC (configuration not stated),4014,2.9,7,1,-20,-3,0
CCCN(C(=O)CSCC(=O)Nc1ccc(OC)cc1)c1c(N)n(Cc2ccccc2)c(=O)[nH]c1=O,4292,0.3,-11,-9,-6,-1,-5
CCCN1CCc2[nH]c(=S)[nH]c(=O)c2C1,2567,4.1,-2,-3,-15,7,-2
CCOC(=O)c1ccc(OCCOc2ccccc2C)cc1,3793,0.0,2,3,-8,34,4
CCOc1cccc(/C=C/c2ccc3cccc(O)c3n2)c1O,3709,8.2,4,-5,-47,2,-2
CCCCCCOc1ccc(C(CC(=O)NC)C(=O)O)cc1 (configuration not stated),4129,4.6,0,13,-29,-2,-4
Cc1nn(C)c(Nc2ccc(Br)cc2)c1Br,4287,-3.9,13,3,-9,3,12
CN(C(=O)C1CCCCC1)C1CCS(=O)(=O)C1 (configuration not stated),?,-1.1,-1,12,-4,9,9
CCOc1ccc(N(C)S(=O)(=O)c2ccc(C)c(C(=O)NCc3cccs3)c2)cc1,3206,-0.4,6,5,7,3,.
CCOP(=O)(OCC)/C(C#N)=C/c1ccc(Br)cc1,4610,.,.,.,-7,.,-10
Cc1ccc(N2C(=O)N(CC(=O)Nc3ccc(C)cc3C)C(=O)C2C)cc1 (configuration not stated),4733,7.7,7,6,2,5,13
CCC(C)NC(=O)c1cccc(OCc2c(C)noc2C)c1 (configuration not stated),2029,1.6,9,3,-11,0,1
CCN(c1cccc2ccccc12)S(=O)(=O)c1ccc(Cl)nc1,4404,7.8,-6,5,-28,10,4
Cn1cccc1C=NNC(=O)C(O)c1ccccc1 (configuration not stated),.,3.6,-2,-3,.,5,.
CCOC(=O)c1sc(NC(=S)NC(=O)CC(C)C)cc1C,3983,-14,.,.,-33,-9,-2
